High-throughput results from PubChem.
YopH inh: YopH (Yersinia) phosphatase inhibition; fluorescence Ex485/Em525; 140,000 compounds, 0.16% hits; inhibition, %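 (about 10 µM by stock and volumes)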;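 active = inhibition of 50% or more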;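 also: controls were vehicle for no effect and minimum signal wells for full effect; inactives centre near -20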
Arbovirus inh: arbovirus infection inhibition. inhibition, % at 10 µM. AID 1251. 200,000 compounds, 0.37% hits. arbovirus infection cell-based antiviral screen;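 active = inhibition from about 30%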;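 also: bluetongue infection of BSR cells; cell survival read as ATP light after 72 h; 0% = infected wells without compound and 100% = uninfected wells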
Mtb growth: M. tuberculosis H37Rv growth inhibitors, H37Rv strain (AID 1626); M. tuberculosis H37Rv growth inhibition; higher % means a stronger effect; one-dose inhibition, % at 10 µM; IC50 in µM for titrated hits; 220,000 compounds, 0.95% hits;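 active = confirmed in a dose series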;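 also: bacteria incubated seven days before Alamar blue readout; 0% = bacteria only wells and 100% = bacteria with antibiotic wells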
RecA splice inh: inhibitors of M. tuberculosis RecA intein splicing; AID 2221; cell-free RecA intein splicing, fluorescence; inhibition, %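 (about 9 µM by stock and volumes)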; 290,000 compounds, 0.75% hits; P9WHJ3; in the data active = inhibition above about 30%;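 also: 0% = vehicle wells and 100% = reference inhibitor control wells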
Target sequence (P9WHJ3 whole entry, looked up, canonical isoform): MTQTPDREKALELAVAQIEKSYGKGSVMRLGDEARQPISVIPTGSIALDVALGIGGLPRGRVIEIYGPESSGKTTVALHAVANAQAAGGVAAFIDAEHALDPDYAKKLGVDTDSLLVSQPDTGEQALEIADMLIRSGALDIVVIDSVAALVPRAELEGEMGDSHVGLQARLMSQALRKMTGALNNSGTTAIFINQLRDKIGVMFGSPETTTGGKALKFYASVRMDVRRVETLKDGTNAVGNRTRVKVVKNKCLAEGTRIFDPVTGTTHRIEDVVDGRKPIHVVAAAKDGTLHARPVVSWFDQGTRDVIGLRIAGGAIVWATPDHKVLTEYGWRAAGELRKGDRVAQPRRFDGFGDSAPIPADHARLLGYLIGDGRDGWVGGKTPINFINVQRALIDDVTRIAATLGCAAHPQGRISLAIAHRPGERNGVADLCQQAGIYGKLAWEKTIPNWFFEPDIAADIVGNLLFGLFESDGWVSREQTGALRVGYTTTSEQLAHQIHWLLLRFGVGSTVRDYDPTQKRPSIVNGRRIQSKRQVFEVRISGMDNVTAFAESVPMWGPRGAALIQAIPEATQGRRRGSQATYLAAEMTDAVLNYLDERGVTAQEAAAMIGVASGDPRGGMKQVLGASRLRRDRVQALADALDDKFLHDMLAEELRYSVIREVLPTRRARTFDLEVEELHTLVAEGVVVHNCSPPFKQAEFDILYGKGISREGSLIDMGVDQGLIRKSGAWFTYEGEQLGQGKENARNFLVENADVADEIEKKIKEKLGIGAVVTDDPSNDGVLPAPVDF
Mtb bLac sens: beta-lactam sensitization of Mtb H37Rv. 330,000 compounds, 0.27% hits. inhibition, % at 25 µM. M. tuberculosis H37Rv growth with meropenem, percent inhibition; hits of this screen are not shown here;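 active = about 74% or more and at least 40 points above the plate without the antibiotic, then above 30% in a dose series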;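 also: growth measured after seven days incubation then overnight dye step; 0% = bacteria only wells and 100% = bacteria with antibiotic; twin plates without the antibiotic show which effects depend on it; some results filed as inactive read as strong as hits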
Arbovirus inh repeat: recorded beside Arbovirus inh, whose call it bears; inhibition, %; measured here: 10K subset replicate screen; many hits read low in the repeat;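 first of two repeat runs on a subset; 0% = infected and 100% = uninfected wells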
* = called active by the depositor; nt = no result given. Not all compounds are listed (hit frequency here may not be typical).

SMILES | YopH inh | Arbovirus inh | Mtb growth | RecA splice inh | Mtb bLac sens | others
c1cnc(Nc2nc(-c3ccc4ccccc4c3)cs2)nc1 | -23.5 | 10.3 | -4.0% | nt | 0.3
Brc1ccc(-c2noc(-c3ccccc3)n2)o1 | nt | nt | nt | 1.4 | -1.5
COc1ccc(C2CC(c3ccc(OC)cc3)n3nc(NC(=O)c4cccs4)nc3N2)cc1 (centres undefined) | 20.0 | 6.9 | -0.6% | -0.9 | 34.8
COc1cc(C)c(Cl)cc1S(=O)(=O)n1cnc2ccccc21 | -15.3 | 4.9 | -3.6% | 4.7 | -5.2
O=C(c1cccnc1)N1CCN(Cc2cccc(F)c2)CC1 | -5.5 | 6.9 | nt | -4.2 | -15.5
Cc1cccc(C)c1NC(=O)CNC(=O)c1ccccc1 | nt | nt | nt | 1.5 | 2.7
CCc1nc2ccccc2c(C(=O)OCCN2C(=O)c3ccccc3C2=O)c1C | -40.5 | 6.2 | -4.9% | 6.0 | -0.7
Cn1cccc1/C=N/n1c(-c2ccco2)n[nH]c1=S | nt | -1.1 | 2.8% | -0.6 | 2.7
CSc1cnc2c(=O)n(C)c(=O)[nH]c2n1 | -6.2 | 9.7 | 0.1% | -12.0 | 2.1
CC(=O)/C=C/c1ccccc1O | nt | -6.1 | nt | nt | 3.7
O=C(COC(=O)COc1ccc(Cl)cc1)NCCNC(=O)COC(=O)COc1ccc(Cl)cc1 | nt | nt | nt | 1.0 | -14.0
CCn1c(-c2ccncc2)n[nH]c1=S | nt | 3.5 | 4.1% | -4.4 | 2.1
CCn1c(SCC(=O)Nc2cc(F)ccc2C)nnc1-c1ccccc1O | -15.1 | 6.2 | -10.9% | 1.1 | 3.6
CC(C)(C)c1cc(Br)c(O)c(N=Nc2ccc(S(=O)(=O)N3CCOCC3)cc2)c1 | nt | 21.7 | 6.7% | -0.8 | 16.5
COc1cccc(NC(=O)CSc2nc3n[nH]c(C)c3c(=N)n2-c2cccc(OC)c2)c1 | -16.7 | -24.9 | 8.4% | 1.7 | -4.8
COc1cc(OC)cc(C(=O)N2CCC(N3CCN(c4ccccc4OC)CC3)CC2)c1 | -12.0 | 1.7 | -1.5% | 4.9 | 0.9
CC(C)(C)NC(=O)COC(=O)/C=C/c1ccc(F)cc1 | -31.9 | -1.0 | -5.3% | -2.3 | -5.6
COc1ccc(N2CCN(C(=S)NC(C)c3ccccc3)CC2)cc1 (centres undefined) | nt | 0.6 | 6.8% | nt | 2.4
CCOc1cc(/C=N/NC(=O)Cn2nc([N+](=O)[O-])cc2C)ccc1OCc1ccc(F)cc1 | -16.6 | -3.8 | 4.5% | -2.9 | 3.5
Cc1ccc(-c2n[nH]c(=O)c3ccccc23)cc1S(=O)(=O)N(C)CCO | -28.2 | -12.7 | -5.2% | 0.4 | -11.6
CC(Oc1ccc(Br)cc1)C(=O)O/N=C(\N)c1ccncc1 (centres undefined) | nt | nt | nt | 5.3 | 4.7
COc1ccc(/C=C(\C#N)C(=O)NCc2ccccc2)cc1O | nt | nt | nt | 9.1 | -5.0
CCC(C)(NC(=O)c1cccc(N2C(=O)CSC2c2ccccc2)c1)C(=O)Nc1ccccc1C (centres undefined) | -18.9 | 0.6 | 1.6% | 4.5 | -0.6
COc1ccc2c(c1)N(C(=O)CSc1n[nH]c(C)n1)C(C)(C)C=C2C | -13.7 | -1.9 | 6.6% | 2.9 | -4.4
COc1ccc(NC(=O)C/C(C)=N/NC(=O)CCc2ccccc2)c(OC)c1 | nt | nt | nt | -3.4 | -2.8
Cn1c(=O)n(C)c2cc(S(=O)(=O)Nc3ccccc3O)ccc21 | -10.7 | -6.5 | -0.9% | -1.4 | 4.1
COC(C[C@H](O)C[C@H](O)COCc1ccccc1)OC | nt | nt | -10.3% | 3.3 | nt
O=C(c1cccnc1)N1CCC(c2nc3ccccc3[nH]2)CC1 | -40.9 | 0.0 | -4.8% | 2.0 | nt
COc1ccc(C(=O)CC2C(=O)N(C)C(=O)N(C)C2=O)cc1 | -10.1 | -8.7 | -2.3% | 3.4 | 2.5
CCc1cccc(NC(=O)Nc2cccs2)c1 | -46.3 | 4.7 | -10.5% | 3.4 | -2.3
CSc1nc2c(c(=O)[nH]1)C(c1cccc(Br)c1)CC(=O)N2 (centres undefined) | nt | 5.1 | 4.7% | nt | -2.8
COc1ccccc1NC(=O)C(C)NS(=O)(=O)c1ccccc1 (centres undefined) | 4.2 | 11.7 | -6.2% | -3.3 | 0.7
COc1cc(NC(=O)CSc2c3c(nc4ccccc24)CCC3)cc(OC)c1OC | -12.3 | 21.1 | 1.2% | 5.7 | -4.5
COc1ccc(N2CSC3=C(C#N)C(c4ccc(OC)c(OC)c4)CC(=O)N3C2)c(OC)c1 (centres undefined) | 59.9* | -7.8 | 2.6% | 1.6 | -3.0 | Arbovirus inh repeat=-10.4
C=CCNC(=O)C1CC(c2cccc(OC)c2)=NO1 (centres undefined) | -48.0 | 3.7 | -6.1% | -2.0 | -3.9
CC(=O)N1c2ccc(S(=O)(=O)NCCC(=O)Nc3ccc(C)c(F)c3)cc2CC1C (centres undefined) | nt | nt | nt | 0.7 | -5.3
CCOC(=O)c1ccc(NC(=S)NCCc2ccccc2F)cc1 | nt | 15.3 | 58.5% | 5.7 | 87.4
CCN1CCCC1CNC(=O)C(=O)NC(C)c1ccccc1 (centres undefined) | nt | -15.2 | -5.0% | -0.6 | 7.8
Cn1ccsc1=NC(=O)c1cc(S(=O)(=O)N2CCOCC2)ccc1F | nt | nt | nt | -2.6 | -2.3
Fc1cccc(F)c1-n1c(CN2CCCCC2)csc1=S | nt | -10.3 | 0.8% | 0.9 | 3.9
COc1ccc2sc(C)nc2c1NC(C)=O | -26.1 | -5.1 | -0.7% | -1.2 | -0.8
C=CCN1C=C2C(=O)C(C)(OC(=O)C3CCCC3)C(=O)C=C2C=C1c1ccsc1 (centres undefined) | nt | nt | -11.0% | 6.9 | -0.1
Nc1nnc(SCC(=O)OCC(=O)Nc2ccccc2)s1 | nt | -0.8 | -0.3% | 2.5 | -5.8
O=C(COC(=O)/C=C/c1ccc(OC(F)F)cc1)Nc1ccc(N2CCOCC2)cc1 | nt | nt | nt | 0.0 | 1.9
COc1ccc(NC(=O)c2ccc3c(=O)n(-c4ccc(OC)cc4OC)c(=S)[nH]c3c2)cc1 | nt | -7.1 | 53.5% | -0.9 | 58.8

Five records drawn at random from the list so far:
SMILES | YopH inh | Arbovirus inh | Mtb growth | RecA splice inh | Mtb bLac sens | others
CCOC(=O)c1ccc(NC(=S)NCCc2ccccc2F)cc1 | nt | 15.3 | 58.5% | 5.7 | 87.4
Nc1nnc(SCC(=O)OCC(=O)Nc2ccccc2)s1 | nt | -0.8 | -0.3% | 2.5 | -5.8
Cn1ccsc1=NC(=O)c1cc(S(=O)(=O)N2CCOCC2)ccc1F | nt | nt | nt | -2.6 | -2.3
CSc1nc2c(c(=O)[nH]1)C(c1cccc(Br)c1)CC(=O)N2 (centres undefined) | nt | 5.1 | 4.7% | nt | -2.8
COc1ccc(N2CSC3=C(C#N)C(c4ccc(OC)c(OC)c4)CC(=O)N3C2)c(OC)c1 (centres undefined) | 59.9* | -7.8 | 2.6% | 1.6 | -3.0 | Arbovirus inh repeat=-10.4

The listing continues:
SMILES | YopH inh | Arbovirus inh | Mtb growth | RecA splice inh | Mtb bLac sens | others
Cc1nn(Cc2ccccc2Cl)c(C)c1C(=O)OCC(=O)NC1CCCC(C)C1C (centres undefined) | 10.9 | -3.0 | 1.5% | -0.3 | 7.1
COCCN1Cc2cccc(C(=O)Nc3c(C)cc(C)cc3C)c2C1=O | -19.1 | 1.1 | -2.9% | -1.6 | -1.8
O=C(Nc1ccccc1)N(C1=NCCCCS1)c1ccccc1 | 1.8 | 1.8 | -6.8% | -0.4 | -7.5
N#C/C(=C/c1ccc(Br)s1)C(=O)NCCc1c[nH]c2ccccc12 | -27.8 | 4.1 | -14.0% | 5.0 | 5.9
COC(=O)c1cc(C(=O)N2CCN(c3cccc(Cl)c3)CC2)cc([N+](=O)[O-])c1 | nt | -0.6 | 7.2% | 1.2 | -4.2
CC(=O)/C(C[N+]1(C)CCCCC1)=N\O | 1.3 | -1.8 | -2.7% | 3.0 | -1.0
COC(=O)Cc1[nH]c(=S)[nH]c1C(=O)OC | nt | nt | -4.4% | 0.0 | -1.6
Cc1cc(C)cc(-n2c(SCC(=O)NCc3ccco3)nc3ccccc3c2=O)c1 | -28.0 | -0.4 | -11.1% | nt | -7.6
COc1ccc(-c2nnc(Sc3nc4ccccc4o3)c3ccccc23)cc1 | -34.0 | -35.8 | -2.2% | 53.3* | -4.8
CN(C)S(=O)(=O)c1ccc2c(c1)C(CC(=O)O)NC2=O (centres undefined) | -16.1 | 7.9 | -3.0% | 2.5 | -2.8
NC(=O)c1ccc(N2CCN(c3ncc(C(F)(F)F)cc3Cl)CC2)cc1 | nt | nt | nt | 0.9 | 4.0
O=C(COC(=O)CCC1CCCC1)Nc1ccccc1OC(F)F | nt | 3.0 | 1.4% | 0.0 | -2.9
CC1CCc2c(C(=O)NCc3ccco3)csc2C1 (centres undefined) | nt | nt | 8.7% | -1.1 | 0.3
C[C@H](CO)NC(=O)[C@@H]1C[C@H]1[C@@H](NP(=O)(c1ccccc1)c1ccccc1)c1ccccc1 | -7.5 | -2.4 | -8.8% | -0.8 | -8.7
CC(C)OCCCNC(=O)c1ccc(CN2CCc3ccccc3C2)cc1 | nt | nt | nt | 0.6 | -3.2
Cc1ccc(CCC(=O)Nc2ccc([N+](=O)[O-])cc2)o1 | nt | nt | nt | 1.9 | -1.5
O=C(C1CC(=O)N(c2ccc(Br)cc2)C1)N1CCCC1 (centres undefined) | nt | nt | nt | -0.6 | -10.8
Cc1noc(C)c1S(=O)(=O)N1CCCC(C(=O)NCCC2=CCCCC2)C1 (centres undefined) | -4.3 | -8.0 | -16.1% | -0.8 | 0.4
CCc1cccc(NC(=O)CSc2nc3c(c(=O)[nH]2)CCCC3)c1 | -26.8 | 2.2 | 2.9% | -0.8 | 5.7
O=C(c1cn(-c2ccccc2)nc1-c1ccccc1)N1CCOCC1 | -16.6 | 0.1 | -8.2% | -2.1 | -1.5
NC(=O)c1ccc2c(=O)c(O)c(-c3cc(Cl)c(N)c(Cl)c3)[nH]c2c1 | nt | nt | nt | -21.6 | -2.0
Fc1ccc(CSc2ncnc3ccccc23)cc1 | nt | 25.5 | 3.1% | -0.1 | 2.4
O=c1cc(CCl)[nH]c2nc3ccccc3n12 | nt | nt | -6.5% | 6.5 | -1.3
O=c1/c(=C/c2cccc3ccccc23)sc2ncnn12 | -29.2 | 3.8 | -1.2% | 8.2 | -5.4
CCN1CCN(c2nnc(-c3ccc(C)cc3)c3ccccc23)CC1 | nt | nt | nt | -0.9 | 7.8
O=[N+]([O-])c1cc(S(=O)(=O)N2CCOCC2)ccc1N1CCCC1 | nt | -5.0 | -0.5% | 4.3 | -5.4
COc1ccccc1NC(=O)c1cc(S(=O)(=O)NC2CCCC2)ccc1F | nt | nt | nt | 3.5 | 0.2
COc1ccc(CC(=O)Nc2nc(-c3ccccc3)c(C(C)=O)s2)cc1OC | nt | nt | nt | -14.4 | 1.4
CCN1C(=O)/C(=C/c2nc3ccccc3c(=O)n2-c2ccccc2)c2ccccc21 | -14.9 | -4.8 | 3.4% | 2.3 | 4.5
CCCCc1cc(=O)oc2cc(OCC(=O)N3CCOCC3)ccc12 | nt | nt | nt | 0.1 | 4.5
CN(C)C(CNC(=O)c1ccc(S(=O)(=O)Nc2ccccc2)cc1)c1ccco1 (centres undefined) | nt | nt | nt | 1.1 | -2.0
O=C(c1cccs1)N(Cc1nc2sc3c(c2c(=O)[nH]1)CCCC3)C1CCCC1 | -11.6 | -2.4 | -7.9% | 12.6 | 3.6
CC(NC(=O)Cn1ccsc1=N)C12CC3CC(CC(C3)C1)C2 (centres undefined) | -30.2 | 14.5 | 6.0% | nt | 2.8
O=C(C(=O)N1CCN(c2ccc(F)cc2)CC1)c1c[nH]c2ccccc12 | nt | 4.8 | 0.9% | 4.0 | -3.4
Cc1ccc(/C=C2/C(=N)N3N=C(CC(=O)N4CCCC4)SC3=NC2=O)o1 | nt | nt | nt | 0.8 | 0.9
CN(C(=O)C(Cl)Cl)c1ccc(OC(=O)c2ccco2)cc1 | -14.7 | 3.1 | -5.5% | 36.2* | 5.6
COc1ccc(Cn2c(=O)c3[nH]cnc3n(-c3ccccc3C)c2=O)cc1 | nt | nt | -3.4% | 0.9 | -2.9
CC(C)COC(=O)n1c(=O)oc2ccc(S(=O)(=O)N3CCCCC3)cc21 | nt | nt | -2.2% | 3.1 | -8.4
CC(C)CN1CCN(Cc2cn(C)c3ccccc23)CC1CCO (centres undefined) | nt | nt | nt | -0.6 | 5.7
Cc1ccc(C)c(Oc2ncnc(N)c2[N+](=O)[O-])c1 | 0.2 | -2.6 | nt | -1.5 | 0.3
